Source: PubChem BioAssay (ICCB-Longwood Screening Facility, Harvard Medical School)
GIV Gai3 FP – inhibitors of GIV GBA-motif binding to rat Galpha-i3 | percent of control (FP), % (no concentration beside the values) | 210,000 compounds, 0.42% hits | Galpha-i3/FITC-GIV peptide fluorescence polarization, 90 min; stronger effect = lower value; scaled: aluminum fluoride 0%, vehicle 100%;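 active means replicate mean at 85% of control or lower, very high polarization wells dropped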;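 further: wells of about 15 µL received 100 nL stock; the first replicate is given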
Target sequence (P08753 whole entry, looked up): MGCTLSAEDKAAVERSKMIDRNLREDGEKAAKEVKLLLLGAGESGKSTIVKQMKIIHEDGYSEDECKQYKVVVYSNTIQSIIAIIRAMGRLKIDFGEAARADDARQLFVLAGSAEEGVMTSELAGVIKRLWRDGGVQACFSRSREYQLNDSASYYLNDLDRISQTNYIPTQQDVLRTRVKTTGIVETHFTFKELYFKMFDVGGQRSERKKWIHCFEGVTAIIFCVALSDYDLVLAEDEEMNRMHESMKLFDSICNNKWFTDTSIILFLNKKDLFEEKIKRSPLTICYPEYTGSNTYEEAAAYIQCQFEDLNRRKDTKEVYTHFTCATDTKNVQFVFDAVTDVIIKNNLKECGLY
Starred values were filed as active, the others as inactive.

SMILES	GIV Gai3 FP
Clc1ccc(Nc2nc(N3CCOCC3)c3ccccc3n2)cc1	106
COCCNC(=O)Cc1c(Sc2ccc(F)cc2)[nH]c2ccccc12	104
COc1ccc(NC(=O)c2nnc(C3CCN(S(=O)(=O)c4ccc(OC)cc4)CC3)s2)cc1	107
CN1C(=O)C2(CCN(C(=O)C(C)(C)C)C2)c2ccccc21 (stereo not given)	105
O=C1CCCc2c1cc(C(=O)NCc1ccc(Cl)cc1)c(=O)n2-c1ccc(F)cc1	97
Cc1ccc(C(=O)Nc2ccc(N3CCN(c4ccccc4Cl)CC3)c(C(=O)O)c2)cc1	108
Cc1nnc2ccc(-n3ncc4c3NC(=O)CC4c3ccc(O)cc3)nn12 (stereo not given)	98
Cc1nc(CCNC(=O)C2CCN(S(=O)(=O)c3ccc(C4CCCCC4)cc3)CC2)cs1	106
CCOc1ccc(-n2nnc3c(N4CCN(C(=O)C5CCCC5)CC4)ncnc32)cc1	99
CCCCOc1ccc(CN2CCCC2c2cc(CCC)on2)cc1 (stereo not given)	101
O=C(CSc1nnc(-c2cc3ccccc3o2)n1-c1ccccc1)Nc1ccc2[nH]c(=O)[nH]c2c1	102
Cc1nnc(NC(=O)CSc2nnc(CNC(=O)c3ccc(S(=O)(=O)N(C)C)cc3)n2-c2ccccc2)s1	112
CCc1ccc(NC(=O)CSc2nc3cc(C(=O)NCCOC)ccc3c(=O)n2Cc2ccco2)cc1	109
COc1cccc(-c2nc(-c3ccc(NC(=O)c4cccs4)cc3)no2)c1	112
COc1ccc(-c2nn(C3CC(=O)C4OCC3O4)c(=S)n2-c2ccccc2)cc1 (stereo not given)	111

Compounds above that have two or more sulfur atoms:
SMILES	GIV Gai3 FP
COc1ccc(NC(=O)c2nnc(C3CCN(S(=O)(=O)c4ccc(OC)cc4)CC3)s2)cc1	107
Cc1nc(CCNC(=O)C2CCN(S(=O)(=O)c3ccc(C4CCCCC4)cc3)CC2)cs1	106
Cc1nnc(NC(=O)CSc2nnc(CNC(=O)c3ccc(S(=O)(=O)N(C)C)cc3)n2-c2ccccc2)s1	112

Following part.
SMILES	GIV Gai3 FP
CC1CC(C)(C)N(C(=O)Nc2cccc(Cl)c2)c2ccccc21 (stereo not given)	106
Cc1ccc(C2(O)CN(c3ccccc3C)C3=[N+]2CCCC3)c(C)c1 (stereo not given)	102
COC(=O)c1cc(Oc2ncnc3scc(-c4ccc(C)cc4)c23)cc(C(=O)OC)c1	103
O=C(O)CCC(=O)OCCN1CCN(CCC(=O)N2c3ccccc3Sc3ccc(C(F)(F)F)cc32)CC1	108
COc1ccc(OC)c(S(=O)(=O)Nc2cccc(-c3ccc4ccccc4n3)c2)c1	99
O=C(NC1CC1)C1CCCN(c2nc3ncn(CC(=O)N4CCc5ccccc5C4)c(=O)c3s2)C1 (stereo not given)	99
Cc1ccc(NC(=O)Nc2ccc(SCc3nnc(-c4ccccc4)o3)cc2)cc1F	101
Cc1cccc(C)c1-n1nnnc1C1(Nc2ccc(I)cc2)CCCC1	104
Cc1ccc(NC(=O)Cn2nc(N(C)C)c3ccccc3c2=O)c(C)c1	104
COc1cc(C2N(c3ccc(Cl)cc3)N=C(C(C)=O)N2c2ccccc2)ccc1OCc1c(Cl)cccc1Cl (stereo not given)	111
CCCc1[nH]n(-c2ccc(F)cc2)c(=O)c1/C=N/N1CCN(C)CC1	105
COc1ccc(-c2cnn3c(SCC(=O)NC(C)(C)C)cc(C)nc23)cc1OC	105
CCCCN(CC)C(=O)c1cc(NC(=O)c2ccccc2Cl)cnc1N1CCNCC1	100
COc1ccc(CCNC(=O)c2ccc3c(c2)nc(C)n3-c2cccc(C)c2)cc1OC	103
CN1CCN(C2=NC(=O)/C(=C/c3cccc(F)c3)S2)CC1	109
CN(CCc1noc(C(=O)NCc2ccc(Cl)cc2)n1)C(=O)Nc1ccccc1	107
Oc1c(Br)cc2oc3c(c2c1CNc1ccc(I)cc1)CCCC3	104
N#CC1=CN(c2cc(Cl)cc(Cl)c2)c2cc(F)ccc2S1(=O)=O	107
COc1ccc(S(=O)(=O)NCCc2sc3nc(-c4ccc(C)cc4)nn3c2C)cc1	102
CCS(=O)(=O)NC1CCN(C(=O)C2CCCC2)C1 (stereo not given)	102
Cc1ccc(N/C(SCc2cccc(Br)c2)=C(/C#N)C(N)=O)cc1C	112
CC(C)CC(C(=O)Nc1ccc(Cl)cc1)N1C(=O)c2ccccc2C1=O (stereo not given)	108
O=C1/C(=C/c2ccc(-c3ccc([N+](=O)[O-])cc3)o2)C=C(c2ccccc2)N1c1ccc(O)cc1	117
O=S(=O)(NCC1CCN(Cc2cccc(Cl)c2)CC1)c1ccc2c(c1)-c1oncc1CO2	112
Cc1ccc(S(=O)(=O)Cc2noc(-c3ccc(Cl)cc3)n2)cc1	105
O=S(=O)(NC1CCCCCC1)c1ccc2c(c1)-c1oncc1CO2	102
O=C(c1ccc(F)cc1)N1CCN(Cc2noc(-c3ccccc3)n2)CC1	104
CC(=O)C1=NN(c2ccc(C)cc2)C2(S1)SC(c1ccc(C)cc1)(c1ccc(C)cc1)c1ccccc12 (stereo not given)	121
COc1ccc(C2C(C#N)=C(N)N(c3ccc([N+](=O)[O-])cc3)C3=C2C(=O)CC(C)(C)C3)cc1OC (stereo not given)	105
CCCCN1/C(=C\C=C\c2n(CCCS(=O)(=O)[O-])c3cc(C(=O)OCC)ccc3[n+]2CCCC)N(CC)c2cc(C(=O)OCC)ccc21	260

Filtered by structure, the entries above with a Cl atom
SMILES	GIV Gai3 FP
Clc1ccc(Nc2nc(N3CCOCC3)c3ccccc3n2)cc1	106
O=C1CCCc2c1cc(C(=O)NCc1ccc(Cl)cc1)c(=O)n2-c1ccc(F)cc1	97
Cc1ccc(C(=O)Nc2ccc(N3CCN(c4ccccc4Cl)CC3)c(C(=O)O)c2)cc1	108
CC1CC(C)(C)N(C(=O)Nc2cccc(Cl)c2)c2ccccc21 (stereo not given)	106
COc1cc(C2N(c3ccc(Cl)cc3)N=C(C(C)=O)N2c2ccccc2)ccc1OCc1c(Cl)cccc1Cl (stereo not given)	111
CCCCN(CC)C(=O)c1cc(NC(=O)c2ccccc2Cl)cnc1N1CCNCC1	100
CN(CCc1noc(C(=O)NCc2ccc(Cl)cc2)n1)C(=O)Nc1ccccc1	107
N#CC1=CN(c2cc(Cl)cc(Cl)c2)c2cc(F)ccc2S1(=O)=O	107
CC(C)CC(C(=O)Nc1ccc(Cl)cc1)N1C(=O)c2ccccc2C1=O (stereo not given)	108
O=S(=O)(NCC1CCN(Cc2cccc(Cl)c2)CC1)c1ccc2c(c1)-c1oncc1CO2	112
Cc1ccc(S(=O)(=O)Cc2noc(-c3ccc(Cl)cc3)n2)cc1	105

(continued)
SMILES	GIV Gai3 FP
COc1ccc(-c2[nH]c(-c3c4ccccc4c(Cl)c4ccccc34)nc2-c2ccccc2)cc1	112
CC1(C)CC(=O)C(C2=NC3(CCCCCC3)Cc3ccccc32)=C(O)C1	106
COC(=O)C1=C(C(=O)OC)SC2(S1)C(C(=O)OC)=C(C(=O)OC)SC1=C2c2cccc(C)c2N(C(=O)Cc2ccccc2)C1(C)C	118
CCCc1ccc(S(=O)(=O)NCCC2CCN(C(=O)Nc3cccc(C)c3)CC2)cc1	107
CCSc1nnc(-c2nn(C)c3c2CN(S(=O)(=O)c2ccc(F)c(Cl)c2)CC3)n1CC	107
COc1ccc(OC)c(NC(=O)c2cc3nc(-c4cccs4)cc(C(F)(F)F)n3n2)c1	102
C1CCc2nnc(-c3nnc4n3CCCCC4)n2CC1	107
COC(=O)c1ccc(C2N(c3ccc(C)cc3)CCN2c2ccc(C)cc2)cc1	102
CN(Cc1ccccc1)CN1C(=O)C2(OCC(C)(c3ccccc3)CO2)c2ccccc21 (stereo not given)	109
O=C1CC(c2ccccc2I)c2c(ccc3ccccc23)N1 (stereo not given)	107
COc1ccccc1-c1nc(-c2ccc(NC(=O)c3cccs3)cc2)no1	101
CCCC(=O)N(c1ccc2oc(C)c(C(C)=O)c2c1)S(=O)(=O)c1ccc(Br)cc1	107
O=C(c1cc2cc(Br)ccc2[nH]1)N1CCN(C(=O)c2c(F)cccc2F)CC1	109
N#Cc1ccc(-c2nc(Cn3ccnc3)no2)cc1	99
O=C(Nc1ccccc1SCc1nnc(-c2ccccc2)o1)c1ccc(Cl)cc1	104
CCOC(=O)C1=C(N)n2c(s/c(=C\c3ccc(Cl)cc3)c2=O)=C(C(=O)OCC)C1c1ccc(Cl)cc1 (stereo not given)	117
C=CCC1(O)C(=O)N2C(=C1C(=O)N1CCOCC1)c1ccccc1CC2(C)C (stereo not given)	108
CC(C)CCn1c(SCC(=O)Nc2nccs2)nc2ccsc2c1=O	104
O=C1CC(n2nc(-c3ccccc3Cl)n(-c3ccccc3)c2=S)C2COC1O2 (stereo not given)	110
CC1CCN(c2ncc3c(n2)CCC(C(=O)NC(C)CCc2ccco2)C3)CC1 (stereo not given)	103
CCc1nc(CN2C(=O)COc3ccc(S(=O)(=O)N4CCCCC4C)cc32)no1 (stereo not given)	103
COC(=O)c1c(C)oc2ccc(N(C(=O)c3ccccc3Cl)S(=O)(=O)c3cccc([N+](=O)[O-])c3)cc12	106
O=C(NCc1ccc(F)cc1)C1CCN(S(=O)(=O)c2ccc3[nH]c(=O)sc3c2)CC1	112
CC1CCN(S(=O)(=O)c2cn(Cc3noc(-c4ccc5cc[nH]c5c4)n3)cn2)CC1	108
CC1CCN(S(=O)(=O)c2ccc3nn(C)c(=O)n3c2)CC1	102
CS(=O)(=O)Nc1ccc(-c2noc(-c3ccc4c(c3)OCO4)n2)cc1	100
Cc1ccc2c(c1)c1c3n2CCN(CC(=O)c2ccc(Br)cc2)C3CCC1 (stereo not given)	169
COc1cccc(C(c2c(C)[nH]n(-c3ccccc3)c2=O)c2c(C)[nH]n(-c3ccccc3)c2=O)c1OC	100
CCCc1nnc(-c2ccsc2)o1	99
Cc1ccc(C(O)CN2C3=NCCN3c3ccccc32)cc1 (stereo not given)	100

Taken from above:
GIV Gai3 FP with CCCc1nnc(-c2ccsc2)o1 = 99
GIV Gai3 FP with CCc1nc(CN2C(=O)COc3ccc(S(=O)(=O)N4CCCCC4C)cc32)no1 (stereo not given) = 103
GIV Gai3 FP with O=C1CC(n2nc(-c3ccccc3Cl)n(-c3ccccc3)c2=S)C2COC1O2 (stereo not given) = 110

Next section.
SMILES	GIV Gai3 FP
CC(=O)N1CCCc2cc(S(=O)(=O)N3CCC(C(=O)NCc4cccnc4)CC3)ccc21	102
Cc1ccc(NC(=O)CSc2nc3cc(C(=O)NCC4CCCO4)ccc3c(=O)n2Cc2ccco2)cc1 (stereo not given)	104
c1ccc2c(C3Nc4cccc5cccc(c45)N3)cccc2c1	115
CCc1onc(C)c1C1CCCN1Cc1ccc(OC)cc1OC (stereo not given)	108
COc1ccc(NC(=O)C2CCCN(S(=O)(=O)Cc3ccccc3)C2)cc1OC (stereo not given)	99
CCOC(=O)C1=C(N)Oc2ccc3ccccc3c2C1c1ccc2c(c1)OCO2 (stereo not given)	103
CCOc1cc(C2C(C(=O)N3CCCCC3)=C(C)NC3=C2C(=O)CC(C)(C)C3)cc(Br)c1O (stereo not given)	101
Cn1c(=O)c(=O)n(CC(=O)NCCN2CCCC2)c2cccnc21	103
COc1cc(OC)c(C2C(C#N)=C(N)Oc3n[nH]c(-c4cc(OC)c(OC)c(OC)c4)c32)cc1OC (stereo not given)	99
C=Cc1ccc(Cn2nc3c(S(=O)(=O)N4CCCC4)cccn3c2=O)cc1	99
O=C(NCCN1CCOCC1)c1nc(-n2cnnc2)ccc1Br	103
COc1cc(C)c(C(C)C)cc1S(=O)(=O)n1nnc2ccccc21	111
Cc1ccc(-c2nc(CSCC(=O)N3CCOCC3)no2)cc1	104
Cc1ccc(-c2nc3ccccc3c3nnc(SCc4ccccn4)n23)cc1	105
N#Cc1c(NC(=O)CSc2ncnc3sc4c(c23)CCC4)sc2c1CCC2	100
CN(Cc1ccc(Cl)cc1)Cc1cc(=O)n2ccsc2n1	94
CC1CCc2c(sc(NC(=O)c3ccc(N4C(=O)C5C6C=CC(C6)C5C4=O)cc3)c2C#N)C1 (stereo not given)	105
CN1CCN(C(=O)C2CCN(S(=O)(=O)c3ccc4c(c3)sc(=O)n4C)CC2)CC1	109
CCC(=O)N1CCc2cc(-c3ccc(C(=O)NCCc4c[nH]c5ccccc45)cc3)ccc21	95
C=CCn1c(=O)c(=O)n(Cc2ccc(C(=O)NCC3CCCO3)cc2)c2ccccc21 (stereo not given)	110
CCCCNC(=O)c1cccc(-c2ccc(S(=O)(=O)N3CCCC3)cc2)c1	102
Cc1ccc2c(c1)-c1c(ssc1=S)C(C)(C)N2C(=O)CSc1nccn1C	108
CC(C)NC(=O)c1ccc2c(c1)CCCN2C(=O)c1ccccc1	101
COCCCN1CCc2nc(SCc3ccc(Cl)cc3)[nH]c(=O)c2C1	97
NC(=S)NN=C1c2cc(OCCN3CCOCC3)ccc2-c2ccc(OCCN3CCOCC3)cc21	121
CC(C)Oc1ccc(Br)cc1C1Nc2ccc3ccccc3c2C2=C1C(=O)CC(C)(C)C2 (stereo not given)	109
Cc1nc(C)c(-c2nc(-c3ccc(Oc4ccccc4)cc3)no2)s1	102
CCS(=O)(=O)c1nc2ccc(NS(=O)(=O)c3cc(C)cc(C)c3)cc2s1	103
Cc1ccc(S(=O)(=O)c2cnc(N3CCN(c4cc(Cl)ccc4C)CC3)nc2N)cc1C	110
O=C(CC(c1ccccc1)c1ccccc1)Nc1nnc2n1CCCS2	103
C=CCN1C(=O)C2(OCCO2)c2cc(C)ccc21	111
O=C(NNc1cc(Cl)ccc1Cl)C(O)(c1ccc(Cl)cc1)c1ccc(Cl)cc1	99
CC(C)(C)c1cc(CN2CCCCCC2)cc(C(C)(C)C)c1O	105
CCOC(=O)c1cc(NC(=O)CSc2ncnc3sc4c(c23)CCCC4)cc(C(=O)OCC)c1	104
COc1ccccc1N1CCN(C(=O)c2sc3nc(C)nc(N4CCOCC4)c3c2C)CC1	98
Cc1ccc([N+](=O)[O-])cc1-n1c(C)c(CC(=O)O)c2c1CC(C)(C)CC2=O	102
Cc1nc(-c2csc(S(=O)(=O)NCc3cccnc3)c2)sc1C(=O)N1CCCC1	107
O=C(Nc1ncnc2oc(-c3ccccc3)c(-c3ccccc3)c12)c1ccco1	125

An excerpt. The share of hits here may be higher or lower than overall.
